From PubChem
PINK1 modulator – A Quantitative High throughput Screen to Identify Chemical Modulators of PINK1 Expression | PINK1 immunofluorescence, high-content cytometry, 24 h | Potency, µM (series often up to 76.6 µM), without a hit: top-dose activation (PINK1 increase), usual class: activators | 410,000 tested, 0.2% active | AID 624263, 2012; active = well fitted activation curve with a large enough effect; inconclusive = small, poorly fitted or top-dose-only effect; inactive = flat fitted curve, though single readings scatter; cell line not stated here;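 also: potency is read from the fitted curve at half-maximal effect; % of control where 0% means no effect; nearly all actives have a fitted effect of over 65% in size; a mitochondrial uncoupler was the plate control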
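Stable cell line treated 24 h with compounds at 5 concentrations (CCCP controls), then fixed and immunostained for PINK1 plus nuclear and cell stains; PINK1 immunofluorescence quantified by laser-scanning microplate cytometry.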
D2 PAM – Beta-Arrestin HTS for Positive Allosteric Modulators of the Human D2 Dopamine Receptor: Potentiators; D(2) dopamine receptor (Homo sapiens), P14416; DiscoveRx D2 beta-arrestin cells, luminescence, 90 min; 100% = 57 uM dopamine signal; potentiation, % (no concentration beside the values); 360,000 tested, 0.23% active; AID 624464, 2012; active = potentiation of 50% or more; inconclusive = 30% to 50%; inactive = 30% or less;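 also: compound concentration not given in the record; tested on top of an EC20 dose of dopamine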
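PathHunter D2 cells, attached overnight at 37 deg C, received compound in DMSO plus dopamine at EC20 (50 nM final) for 90 min at 37 deg C. Beta-arrestin recruitment was read as luminescence after 1 h with detection reagent at ambient temperature.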
D2 ag – Beta-Arrestin HTS for Positive Allosteric Modulators of the Human D2 Dopamine Receptor: Agonists; activation, % (concentration not given with the values); DiscoveRx PathHunter D2 beta-arrestin, luminescence, 90 min; 100% = 57 uM dopamine signal; D(2) dopamine receptor (Homo sapiens), P14416; AID 624465, 2012; 360,000 tested, 0.084% active; in the data active = activation above about 40%; inconclusive = about 15% to 40%; inactive = below about 15%; also: compound concentration not given in the record; the text of the record calls up to 30% inactive
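Agonist mode: compounds alone added to overnight-plated D2 PathHunter cells for 90 min at 37 C, with 57 uM final dopamine (EC100) defining full response. Beta-arrestin recruitment detected by chemiluminescent reagent, read after 1 h at ambient temperature.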
Six1-Eya2 inh – qHTS Assay for Inhibitors of the Six1/Eya2 Interaction; Homeobox protein SIX1 (Homo sapiens) + Protein phosphatase EYA2 (Homo sapiens), …; AlphaScreen GST-Six1/His-Eya2 binding, biochemical; hits give low values; control for the full effect not named in the record; activity change, % (no concentration beside the values); 360,000 tested, 0.56% active; AID 651725, 2012; in the data active = activity change below about -65%; inconclusive = about -30% to -65%; inactive = above about -30%; also: % is scaled to controls: 0 for no effect and ±100 for the full control effect; compound concentration not given in the record
Target sequence (O00167 whole entry, looked up): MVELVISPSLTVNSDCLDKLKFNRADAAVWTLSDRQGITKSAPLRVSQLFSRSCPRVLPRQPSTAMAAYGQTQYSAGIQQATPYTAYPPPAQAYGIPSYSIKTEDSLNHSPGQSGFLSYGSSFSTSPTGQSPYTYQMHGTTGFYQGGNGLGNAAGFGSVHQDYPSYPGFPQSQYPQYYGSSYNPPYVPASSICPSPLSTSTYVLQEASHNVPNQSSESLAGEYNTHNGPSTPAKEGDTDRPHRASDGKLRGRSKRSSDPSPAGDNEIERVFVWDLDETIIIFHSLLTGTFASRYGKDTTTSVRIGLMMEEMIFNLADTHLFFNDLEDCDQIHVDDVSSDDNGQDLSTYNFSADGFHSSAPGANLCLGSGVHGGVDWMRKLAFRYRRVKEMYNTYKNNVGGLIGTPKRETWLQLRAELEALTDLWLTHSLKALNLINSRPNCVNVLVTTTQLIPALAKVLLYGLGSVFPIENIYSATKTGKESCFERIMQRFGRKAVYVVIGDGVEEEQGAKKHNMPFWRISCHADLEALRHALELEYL
Target sequence (Q15475 whole entry, looked up): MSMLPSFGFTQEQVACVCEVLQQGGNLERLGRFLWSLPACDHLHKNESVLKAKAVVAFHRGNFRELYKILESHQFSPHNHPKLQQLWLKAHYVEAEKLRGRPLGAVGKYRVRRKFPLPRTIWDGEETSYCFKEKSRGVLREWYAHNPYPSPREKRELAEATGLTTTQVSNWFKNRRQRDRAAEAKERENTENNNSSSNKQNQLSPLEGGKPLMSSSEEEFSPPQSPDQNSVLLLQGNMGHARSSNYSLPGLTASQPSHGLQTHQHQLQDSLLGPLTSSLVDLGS
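AlphaScreen with GST-Six1 and His-Eya2 (5X mix: 250 nM and 500 nM), glutathione donor and nickel acceptor beads; buffer 50 mM Tris pH 8.0, 300 mM NaCl, 1 mM TCEP; 1 h at 37 C in the dark.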
CtBP-E1A inh – qHTS Assay for Inhibitors of the CtBP/E1A Interaction. AID 651724, 2012. AlphaScreen GST-E1A/His-CtBP binding, 1536-well; hits give low values; control for the full effect not named in the record. 340,000 tested, 0.49% active. activity change, % (test concentration not listed); in the data active means activity change below about -65%; inconclusive means about -30% to -65%; inactive means above about -30%; also: % is scaled to controls: 0 for no effect and ±100 for the full control effect; compound concentration not given in the record
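AlphaScreen with 125 nM GST-E1A and 125 nM His-CtBP (5X stocks) in Tris pH 8.0, 300 mM NaCl, BSA, Tween 20, TCEP. Compounds preincubated 2 h at 37 deg C, then glutathione donor/nickel acceptor beads added for 1 h at 37 deg C in dark.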
TRPML1 agonist – qHTS for Agonists of the Human Mucolipin Transient Receptor Potential 1 (TRPML1) | AID 624414, 2012 | 410,000 tested, 0.12% active | activation, % (no concentration beside the values) | TRPML1-expressing cells, Ca2+ dye fluorescence, FDSS; host cell line not named in the record; reference of the full effect not given here | Mucolipin-1 (Homo sapiens), Q9GZU1; in the data active = activation above about 50%; inconclusive = about 30% to 50%; inactive = below about 30%; also: 0% is about no effect; the text of the record puts the active cut at 80%
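Tetracycline-induced TRPML1-DL cells are seeded and incubated overnight before loading with a no-wash Ca2+ dye and quencher. Agonist activity is taken from the 110 s fluorescence read following compound pin-transfer on an FDSS, before EC80 54-4 challenge.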
Starred values were filed as active, the others as inactive; u = inconclusive; x = not tested or not shown; & = joins results of further samples; [ ] = another dose, or the depositor's remark.

molecule	TRPML1 agonist	PINK1 modulator	D2 ag	Six1-Eya2 inh	D2 PAM	CtBP-E1A inh
CCC(CC)c1nnc(NS(=O)(=O)Cc2ccccc2)s1	-0.3	1.9%	-3.6	-14	23	10
COc1ccc(NC(=O)CN(C)CC(=O)NCC2CCCCC2)cc1	-0.2	1.8%	-0.9	2	-6	2
Cc1csc(SCc2ccc(C(=O)O)cc2)n1	-0.4	x	-2.3	3	13	15
CCN1C(=O)C(C)S/C1=N\S(=O)(=O)c1ccc(F)cc1 (configuration not stated)	0.5	2.1%	0.6	7	-6	12
CC(=O)Nc1cccc(S(C)(=O)=O)c1	-0.3	0.0%	-6.8	1	-4	1
COC(=O)c1cc2c(=O)c3ccccc3oc2nc1C	-0.9	0.2%	-1.5	0	-6	6
CCOC(=O)C1(C)CCN1C(=O)c1ccc2ccccc2c1 (configuration not stated)	-0.6	1.1%	2.0	14	-6	-4
COc1ccccc1Oc1ccc(S(=O)(=O)Nc2cccnc2)cc1	0.4	2.0%[38.3 µM]	3.2	3	-21	6
COc1cc(NC(=O)CCc2nc(-c3cccs3)no2)cc(OC)c1OC	-0.9&0.2	-1.1%&0.1%	1.8	-2	9	1
Cc1nc2ccccc2n1CC(=O)c1ccc(O)c(O)c1	-0.5	1.0%	-1.7	u	-6	-13
O=C(Oc1ccc(C(=S)N2CCOCC2)cc1)c1ccccc1	-0.4	3.2%	0.4	u	-4	-16
c1ccc(CCSc2ncnc3nc[nH]c23)cc1	1.0	0.9%	4.9	4	-7	x
N#C/C(=C/c1cccs1)c1nc2ccccc2[nH]1	0.2	u	1.6	-10	-23	2
COc1ccc2cc(CO)n(C)c2c1	-0.1	1.1%	-4.5	-1	-3	-10
CC1CCc2sc(C(=O)OCC(=O)NCc3ccccc3)cc2C1 (configuration not stated)	1.2	5.3%	-1.8	6	-13	11

Six entries from above, with values under each structure.
The line under a structure holds: TRPML1 agonist	PINK1 modulator	D2 ag	Six1-Eya2 inh	D2 PAM	CtBP-E1A inh
- COC(=O)c1cc2c(=O)c3ccccc3oc2nc1C
    -0.9	0.2%	-1.5	0	-6	6
- COc1ccccc1Oc1ccc(S(=O)(=O)Nc2cccnc2)cc1
    0.4	2.0%[38.3 µM]	3.2	3	-21	6
- N#C/C(=C/c1cccs1)c1nc2ccccc2[nH]1
    0.2	u	1.6	-10	-23	2
- COc1cc(NC(=O)CCc2nc(-c3cccs3)no2)cc(OC)c1OC
    -0.9&0.2	-1.1%&0.1%	1.8	-2	9	1
- COc1ccc2cc(CO)n(C)c2c1
    -0.1	1.1%	-4.5	-1	-3	-10
- CCC(CC)c1nnc(NS(=O)(=O)Cc2ccccc2)s1
    -0.3	1.9%	-3.6	-14	23	10

Further entries follow.
molecule	TRPML1 agonist	PINK1 modulator	D2 ag	Six1-Eya2 inh	D2 PAM	CtBP-E1A inh
CCCCC12CN3CCN(CC(C3)/C1=N\NC(=O)Nc1ccccc1)C2	0.0	u	-1.3	-12	-4	11
O=C(Cc1c(F)cccc1Cl)NNC(=S)Nc1ccc(S(=O)(=O)Nc2ncccn2)cc1	0.3	1.0%	-8.8	-7	-17	2
O=C(CSc1nccn(-c2ccc(Br)cc2)c1=O)Nc1ccccc1F	1.7	16%	-2.0	5	-4	-3
COc1ccccc1CNCc1ccc(C)cc1	-0.6	1.4%	-2.2	-2	-1	13
CCN(CC)C(=O)N1CCN(C)CC1	-0.1	0.3%	-2.0	15	-1	-17
COC(=O)COc1ccc(S(=O)(=O)N2CCN(c3ccc(OC)cc3)CC2)cc1	0.5	0.6%	-2.5	-1	-2	1
CCCC(=O)Nc1c(-c2cccc(OC)c2)c(=O)c2ccccc2n1C	5.0	-2.4%	0.6	6	-6	-1
O=C(O)c1ccccc1SC1CC(=O)N(c2ccccc2)C1=O (configuration not stated)	0.3	-1.2%	-8.3	12	-19	-15
CC(C)(C)OC(=O)NCCCC[C@H](NC(=O)c1nc[nH]c1C(=O)N1CCN(C(=O)OC(C)(C)C)CC1)C(=O)OC(C)(C)C	-0.9	0.8%	6.7	-3	5	3
Oc1ccc(Br)cc1CNn1cnnc1	0.1	0.4%	-5.6	-3	-15	-4
C/C(CC(=O)N1CCN(C=O)CC1)=N\NC(=O)c1cc2ccccc2cc1O	0.1	-1.0%	-5.6	-21	51*	5
O=C(NC1CCCCC1)C1CCN(S(=O)(=O)N2CCCCCC2)CC1	0.9	2.7%[38.3 µM]	-1.0	2	-6	10
CC(C)(C)NS(=O)(=O)c1ccc2[nH]c3c(c2c1)CCCCC3	-0.4	u	-1.0	-15	-4	-13
CCOC(=O)c1c(C)[nH]c(C(=O)OCC(=O)N(C)C2CCS(=O)(=O)C2)c1C (configuration not stated)	1.1	-2.5%	-3.2	-1	3	0
c1ccc(-n2ncc3c(N4CCN(c5ccccn5)CC4)nc(N4CCCCCC4)nc32)cc1	-0.1	8.7%[38.3 µM]	0.0	0	-16	-17

Further results
molecule	TRPML1 agonist	PINK1 modulator	D2 ag	Six1-Eya2 inh	D2 PAM	CtBP-E1A inh
CN(Cc1ccc(Cl)c(Cl)c1)C(=O)c1ccccc1SCC(=O)N1CCCC1	0.5	-0.4%	-5.0	-7	-17	3
COC(=O)Cc1c(C)nc(SCc2ccccc2)[nH]c1=O	3.8	-0.8%	-1.3	2	-6	x
CCNC(=S)N/N=C/c1cc(C)ccc1C	2.1	2.8%	-0.9	1	-31	1
CCOc1ccc(CN(C)CC(=O)NCc2ccc(F)cc2)cc1	1.8	3.8%	-4.3	4	-11	x
O=C(N/N=C/c1cc(Cl)ccc1O)c1ccc(Br)cc1	0.7	12%	0.9	u	-20	u
CC1CCN(c2ccc(/C=N\Nc3nncn3N)cc2[N+](=O)[O-])CC1	1.4	2.0%	13	-23	13	7
COC(=O)C(NC(C)=O)(Nc1cccc(C)n1)C(F)(F)F (configuration not stated)	-0.9	0.7%	1.0	4	-2	9
O=C(O)c1ccccc1C(=O)c1ccc(N2CCCC2)c([N+](=O)[O-])c1	0.0	0.0%	0.0	9	-7	x
O=S(=O)(c1cnc[nH]1)N1CCN(c2ccccc2)CC1	-0.3	0.2%	-6.4	7	-6	9
CCC(C)CCN1C(N(C)C)=NC[C@@H]1C (some centres not stated)	0.0	-0.3%	-2.5	3	-13	5
CC(=O)N1CCN(c2ccc(S(=O)(=O)NCCN(C(C)C)C(C)C)cc2[N+](=O)[O-])CC1	-0.5	-0.7%	-5.6	1	-18	-3
Cc1ccc(NC(=O)C2CC(=O)n3ncnc3N2)cc1C (configuration not stated)	-0.2	1.2%	-2.1	0	-1	0
Oc1ccc(-c2nccc(-c3ccc(Cl)cc3)n2)cc1	-0.6	-0.6%	3.3	-4	-5	-14
O=C(CCNC(=O)c1ccc(Cl)cc1)NC1CCCc2ccccc21 (configuration not stated)	-0.2	4.1%	0.9	0	1	8
Cc1ccc(CS(=O)(=O)CCC(=O)NCC2CCCO2)cc1 (configuration not stated)	1.3	-0.8%[38.3 µM]	5.4	10	11	7

Next entries follow.
molecule	TRPML1 agonist	PINK1 modulator	D2 ag	Six1-Eya2 inh	D2 PAM	CtBP-E1A inh
O=C1NC[C@H](CCCCN2CCN(CC3CCCCC3)C(=O)C2=O)N(CCC2CCCCC2)C1=O	-0.5	-0.4%	x	4	x	-1
Cc1noc(C)c1COc1ccccc1C(=O)N(C)CC(=O)Nc1ccc(F)c(F)c1F	0.5	0.2%	-0.4	5	-5	1
COc1ccc(N(CC(=O)Nc2cc(Cl)ccc2OC)S(=O)(=O)c2c(C)noc2C)cc1	0.7	8.2%	-3.0	-2	-18	10
O=C(Cn1c2ccccc2c2nc3n(c(=O)c21)CCCS3)Nc1ccccc1	-0.8	0.5%	-3.3	-2	-1	-13
O=C(Nc1ccc(Br)cc1Cl)NC1CC1	0.2	7.5%	5.1	4	8	7
O=C(NCc1cn2ccccc2n1)c1ccccc1	-0.5	-0.4%	-4.8	6	-11	0
COc1cc2cc(CN(Cc3cccnc3)C(=O)NCc3ccccc3)c(=O)[nH]c2cc1OC	-0.4	-1.3%	-2.0	-2	-13	-3
NCCCCCC(=O)N/N=C/c1ccc2nccnc2c1	0.1	1.0%	-6.1	5	-2	-2
CCc1ccc(OCC(=O)NC(C)(C)C)cc1	0.3	6.4%	1.1	10	-12	12
COC(=O)CN(n1cnnc1)S(=O)(=O)c1ccccc1	-0.7	6.2%	-3.7	-11	-7	-9
COc1cc2c(NCCCCCO)ncnc2c(OC)c1OC	-0.9	1.3%	-4.4	-4	-4	-2
COc1ccc(NC(=S)c2ccc(N(C)C)cc2)cc1	1.1	4.4%	-2.2	-9	-17	-10
COc1ccc2oc(C(=O)NCC(Cc3ccccc3)N(C)C)c(C)c2c1 (configuration not stated)	2.6	0.2%	2.2	2	-11	-3
CC1(C)CC(=O)C2=C(C1)OC(N)=C(C#N)C2c1cc2c(cc1[N+](=O)[O-])OCO2 (configuration not stated)	6.4	0.8%	2.5	6	29	-1
NS(=O)(=O)c1ccc(NC(=O)Nc2ccc(C(F)(F)F)cc2)cc1	4.3	6.8%	7.8	3	-3	7

(cont.)
molecule	TRPML1 agonist	PINK1 modulator	D2 ag	Six1-Eya2 inh	D2 PAM	CtBP-E1A inh
CCNC(=O)C1(C)CCN(Cc2ccc(-c3ccccc3)cc2)C1 (configuration not stated)	-0.3	1.4%	2.5	4	-10	1
COc1c(Cl)cc(Cl)cc1C(=O)n1nc(C)cc1C	2.5	13%	-1.6	13	-3	20
Cc1cccc(C)c1NC(=O)C(NC=O)c1ccc(Cl)cc1 (configuration not stated)	-0.1	-3.3%	-1.6	-1	-10	10
O=C(CN1C(=O)NC2(CCOc3ccccc32)C1=O)Nc1ccc(F)c(F)c1F (configuration not stated)	2.0	-0.5%	-5.4	-5	-4	-2
Cc1csc(NC(=O)c2cc([N+](=O)[O-])cc([N+](=O)[O-])c2)n1	-0.9	0.8%	7.9	-15	14	-13
Clc1ccc(CSc2nncn2-c2ccc3c(c2)OCCO3)cc1	0.4	3.6%	5.5	-1	1	2
Cc1cc(C)c(C#N)c(SC2CCCCC2=O)n1 (configuration not stated)	-0.6	1.2%[38.3 µM]	-0.6	5	8	10
CCCCN(CC)C(=O)c1ccc(-c2ccccc2)cc1	4.9	5.0%	-4.5	4	-20	1
